Assay outcomes as filed in PubChem BioAssay.
Mtb growth – Mycobacterium tuberculosis H37Rv growth inhibition, cell based, confirmatory dose response (AID 1949); actives 1.6% (n = 100,000); inhibition, % at 10 µg/mL; hits with a dose series show IC50 in µg/mL; most inactive calls were filed without a number and no value below 0 was filed;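 active means confirmed in a dose series; inconclusive means about 50% or more but not retested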;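 further: bacteria grown 7 days with compound before Alamar blue readout; 0% = untreated bacteria and 100% = reference antibiotic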
* = called active by the depositor; i = inactive; ? = inconclusive.

structure | Mtb growth
CS(=O)(=O)N(CC(=O)Nc1cc(Cl)ccc1Oc1ccccc1)c1cccc(C(F)(F)F)c1 | 6.4%
COc1ccc(NS(=O)(=O)c2cc([N+](=O)[O-])ccc2C)cc1 | i
COc1ccccc1N1CCN(C(=O)COc2ccc(Cl)cc2Br)CC1 | 9.5%
CN(C)CCCNC(=O)CCC1CCCCC1 | i
CC(Nc1n[nH]c(=O)[nH]c1=O)C(=O)N/N=C/c1ccccc1O (centres undefined) | i
O=S(=O)(Nc1ccc(Cc2ccncc2)cc1)c1ccc(Cl)c(Cl)c1 | i
CCOc1cccc2cc(C(=O)Nc3cc(C)ccc3C)c(=O)oc12 | i
CC1CN(CCCOc2ccc(C(C)(C)C)cc2)CC(C)O1 (centres undefined) | i
CCOc1ccc(N2C(=O)CC(N3CCc4ccccc4C3)C2=O)cc1 (centres undefined) | i
O=C(CSc1ccccc1)Nc1cccc(-c2nnc(-c3ccco3)o2)c1 | i
COC(=O)c1sc(N2C(=O)c3oc4ccccc4c(=O)c3C2c2ccc([N+](=O)[O-])cc2)nc1C (centres undefined) | i
O=C(O)c1cccc(NC(=S)NC(=O)c2ccc(-c3ccccc3)cc2)c1 | i
CCC(=O)Nc1cc(-c2nn(C)c(=O)c3ccccc23)ccc1OC | i
O=C(CSCc1ccc(Cl)cc1Cl)Nc1ccc2c(c1)C(=O)NC2=O | i
CCCCC(=O)Nc1cc(-c2nc3ccccc3s2)ccc1Cl | 4.6%
CN(CC(=O)N1CCC(Cc2ccccc2)CC1)S(=O)(=O)c1cc(Cl)ccc1Cl | i
CC1=C(C(=O)OCc2ccccc2)C(c2cccs2)C2=C(CC(c3cccs3)CC2=O)N1 (centres undefined) | 0.5%
CN(CC(=O)NC1CC(C)(C)NC(C)(C)C1)S(=O)(=O)c1cc(Cl)ccc1Cl | 2.3%
COc1ccc(NC=O)c2ncccc12 | i
CCc1ccc(NC(=O)CSc2nnc(-c3cccnc3)n2CC)cc1 | 3.6%
O=C(c1ccc(NC(=S)NCc2ccc(Cl)cc2)cc1)N1CCCCC1 | i
Cc1ccccc1CSCC(=O)N1CCN(c2cccc(Cl)c2)CC1 | 2.6%
CCCc1cc(=O)oc2cc(OC(C)=O)cc(OC(C)=O)c12 | i
COc1ccc(/C=C(\NC(=O)c2ccccc2)C(=O)NN)cc1OC | i
Cc1nc2cc(NC(=O)N(C)c3ccc4ccccc4c3)ccc2o1 | 30.4%
O=C(Nc1ccc(F)cc1F)C1CCN(C(=O)c2ccc(Br)cc2)CC1 | 0.4%
CC(C)=CCCC(C)CN(CC(C)O)CC(C)O (centres undefined) | 0.7%
Cc1ccc2[nH]c3c(c2c1)CCCC3CN (centres undefined) | 9.5%
CN1C(C(=O)c2ccccc2)=C(NC(=O)c2ccc(F)cc2)c2ccccc2S1(=O)=O | i
Cc1ccc(NS(=O)(=O)c2ccc(NC(=O)CCc3ccccc3)cc2)c(C)c1 | i
Cc1ccc(Cl)cc1NC(=S)Nc1ccc(Cl)cc1Cl | i
CCOC(=O)c1c(N)sc(-c2ccccc2)c1C | i
CN(C)CCOc1ccc(C(C)(C)c2ccccc2)cc1 | i
Cc1cc(C)nc(NC(=O)Nc2ccccc2C(F)(F)F)c1 | i
COc1ccc2c(c1)C(=O)CC(c1ccc3c(c1)OCCO3)O2 (centres undefined) | i
CC(=O)c1ccc(NC(=S)NC(NC(=O)c2cccc(C)c2)C(Cl)(Cl)Cl)cc1 (centres undefined) | 45.9%
CCCc1cc(=O)oc2cc(OCC(=O)c3ccccc3)ccc12 | 7.2%
COc1ccc(N(CC(=O)Nc2cccc(Cl)c2Cl)S(C)(=O)=O)cc1Cl | 1.1%
COC(CNC1=CC(=O)OC12CCCCC2)OC | i
CC(O)c1cccc(NC(=O)C2C3C=CC(C3)C2C(=O)O)c1 (centres undefined) | 5.6%
COC(=O)C1=C(C)Nc2c(c(=O)n(C)c(=O)n2C)C1c1cccc(Br)c1 (centres undefined) | i
Cc1ccc(S(=O)(=O)C(C)C(=O)c2ccccc2)cc1 (centres undefined) | i
COc1ccc(C(=O)NC(=S)Nc2cc(Cl)c(Cl)cc2Cl)cc1[N+](=O)[O-] | i
Cc1ccc(C(=O)n2c(C)nc3ccccc32)o1 | i
Fc1ccccc1NC(=S)NCCCn1ccnc1 | i
O=C(Nc1ccccc1Br)c1sc2cc(Cl)ccc2c1Cl | 1.7%
COc1ccc(Cl)cc1N(CC(=O)N1CCOCC1)S(=O)(=O)c1ccccc1 | 0.6%
O=C1CC(Sc2nnnn2-c2ccccc2)C(=O)N1c1ccc(Cl)c(Cl)c1 (centres undefined) | 0.9%
NC1=NC(=O)CC(C(=O)Nc2ccccc2)S1 (centres undefined) | i
COc1cc(NS(=O)(=O)Cc2ccccc2)cc(OC)c1OC | i
COc1ccc(Nc2nc3ccccc3nc2NS(=O)(=O)c2ccc(Cl)cc2)cc1OC | 42.6%
CCOC(=O)N1CCC(n2c(SCc3ccccc3Cl)nc3ccccc3c2=O)CC1 | 3.3%
COc1cc(C(=S)N2CCCC2)ccc1OCc1c(F)cccc1Cl | i
CCOC(=O)c1c(NC(=O)c2cc(OC)cc(OC)c2)sc(C)c1C | i
CCOc1ccccc1N(CC(=O)N1CCC(C(N)=O)CC1)S(C)(=O)=O | i
Cc1ccc(-c2cc(C(=O)N3CCN(C)CC3)c3ccccc3n2)o1 | i

Continued:
structure | Mtb growth
CC1=C(C(=O)Nc2ccccc2C)C(c2cccnc2)n2nc(SCc3ccccc3)nc2N1 (centres undefined) | 4.7%
CN1C(=O)C(CC(=O)Nc2ccc(F)cc2)N(Cc2ccco2)C1=S (centres undefined) | i
O=c1oc2ccc3ccccc3c2cc1-c1nnc(NCc2ccc(F)cc2)s1 | i
O=C(O)CC(C(=O)OC1CCCCC1)N1CCOCC1 (centres undefined) | i
O=C(NCCC1=CCCCC1)c1cccc(F)c1 | i
CC(C)(O)c1c(C(F)(F)F)nnn1-c1ccccc1 | i
O=C(c1cccc(F)c1F)N1CCCCC1 | 0.8%
CC(=O)Nc1ccccc1NC(=O)CC(C)(C)C | i

Of the compounds above, these have an NH in an aromatic ring:
structure | Mtb growth
CC(Nc1n[nH]c(=O)[nH]c1=O)C(=O)N/N=C/c1ccccc1O (centres undefined) | i
Cc1ccc2[nH]c3c(c2c1)CCCC3CN (centres undefined) | 9.5%

Carrying on.
structure | Mtb growth
O=C(Nc1cccc(NC(=O)c2ccccc2I)c1)c1ccco1 | 4.1%
Cc1sc(NC(=O)c2ccccc2[N+](=O)[O-])c(C(N)=O)c1C | 18.7%
CC1CN(C(=O)c2ccccc2)C(C)CN1C(=O)c1ccccc1 (centres undefined) | i
CC(C)c1ccc(/C=C(\C#N)c2nc3ccccc3c(=O)[nH]2)cc1 | i
CCOC(=O)c1ccc(Nc2nnc3nc(C)cc(C)n23)cc1 | i
O=C(NC1(C(=O)O)CCCCC1)c1cccs1 | i
CCOC(=O)c1ccc(NC(=O)Nc2ccccc2C(C)CC)cc1 (centres undefined) | 2.5%
Cc1cccc(OCC(=O)Nc2ccc(C(=O)Nc3ccccc3C(=O)O)cc2)c1C | i
CCC(C(=O)NCc1ccc(C)cc1)c1ccccc1 (centres undefined) | 0.8%
CCOC(=O)c1ccc(COC(=O)CNC(C)=O)c(Br)c1 | 0.7%
CCN(CC)C(=O)c1ccc(NS(=O)(=O)c2ccccc2)cc1 | i
Cc1ccc(S(=O)(=O)CC(=O)c2cccc3ccccc23)cc1 | i
CCSc1ccccc1C(=O)Nc1nc2ccccc2c(=O)[nH]1 | 4.5%
CCOc1cc(CNc2nnn(C)n2)cc(Br)c1OCc1ccccc1Cl | 1.2%
COC(=O)c1cn(C(=O)c2cccs2)c2ccccc12 | i
COc1ccc(NC(=O)c2c(F)c(F)c(F)c(F)c2F)c([N+](=O)[O-])c1 | ?
CCCCc1ccc(NC(=S)NC2CC(C)(C)NC(C)(C)C2)cc1 | 6.5%
O=C1CC(c2ccccc2)CC(O)=C1C=NCCN1CCNCC1 (centres undefined) | i
COc1ccc(S(=O)(=O)N2CCOCC2)cc1C(=O)O | i
COc1ccc(C)cc1S(=O)(=O)N1CCOCC1 | i
Cc1nc(SCc2csc(C)n2)c2c3c(sc2n1)CCCC3 | 1.61µg/mL*
CN(CC1COc2ccccc2O1)C(=S)Nc1ccccc1 (centres undefined) | 0.4%
O=C(O)CCC(=O)Nc1ccc(N2CCOCC2)c(C(=O)O)c1 | 0.9%
COC(=O)c1ccc(/C=C/c2ccc3cccc(OC(C)=O)c3n2)cc1 | ?
O=S(=O)(c1ccc2ccccc2c1)N1CCN(Cc2ccccn2)CC1 | i
Cc1nc(N)sc1-c1csc(Nc2ccccc2[N+](=O)[O-])n1 | i
Nc1ccc(NC(=O)c2cc(Cl)ccc2O)c(Cl)c1 | i
O=C(O)CCc1nn2cnc3sc4c(c3c2nc1=O)CCCC4 | i
COc1ccc(N(CC(=O)Nc2cc(Cl)ccc2Oc2ccccc2)S(C)(=O)=O)cc1OC | 0.7%
CC(C)c1cc(C(=O)NNC(=S)NCc2ccc(F)cc2)c(O)c(C(C)C)c1 | 5.5%
O=C(c1ccc(Cl)cc1)N(Cc1cccs1)C1CCS(=O)(=O)C1 (centres undefined) | i
COc1ccc(NC(=O)N2CCC(Cc3ccccc3)CC2)cc1OC | i
O=C(NNC(=O)c1cccs1)c1ccccc1 | i
CCC(C)c1ccccc1OCCOCCNCCCOC (centres undefined) | i
CS(=O)(=O)N(CC(=O)Nc1ccc2c(c1)OCCO2)c1cccc(Cl)c1Cl | i
O=C(c1cc2sc3ccccc3c2s1)N1CCOCC1 | i
COc1ccc(N2C(=O)NC(=O)/C(=C\c3ccc(C)o3)C2=O)cc1 | i
O=C(C1CCN(Cc2ccccc2O)CC1)N(CCc1ccccc1)Cc1ccccc1 | 7.8%
CC(C)(C)CC(C)(C)NC(=O)c1ccco1 | i
c1ccc(Cc2nnc3sc(Nc4ccccc4)nn23)cc1 | 1.3%
Cn1nnc(NC(=S)NC(=O)c2ccco2)n1 | i
COc1cccc(NC(=O)c2ccc3c(c2)C(=O)N(C2CCCCC2)C3=O)c1 | 4.5%
O=C(CCc1ccccc1)NC(=S)Nc1nnc(CCN2CCCCC2)s1 | i
Cc1ccc(/C(N)=N/OC(=O)Cc2cccs2)cc1 | 4.0%
CCN1C(=O)C2(C(C#N)=C(N)OC3=C2C(=O)CC(C)(C)C3)c2ccccc21 (centres undefined) | i
Cc1ccc(OCC(=O)Oc2ccc(C(=O)Nc3cc(Cl)ccc3Cl)cc2)c(C)c1 | i
CCOc1ccc(NC(=O)c2ccc3c(c2)OCO3)c([N+](=O)[O-])c1 | i
CCOc1ccc(CN2CCN(Cc3ccccc3OC)CC2)cc1 | i

Next section, overlapping the part above by three compounds.
structure | Mtb growth
Cc1ccc(OCC(=O)Oc2ccc(C(=O)Nc3cc(Cl)ccc3Cl)cc2)c(C)c1 | i
CCOc1ccc(NC(=O)c2ccc3c(c2)OCO3)c([N+](=O)[O-])c1 | i
CCOc1ccc(CN2CCN(Cc3ccccc3OC)CC2)cc1 | i
Cc1cc(C)c(CSc2nnc(NC(=O)c3ccccc3Br)s2)c(C)c1 | 4.0%
COc1cc(/C=C(/C#N)c2nc3ccccc3[nH]2)ccc1OC(F)F | i
O=C(O)CCc1ccc(-c2ccc(F)cc2)n1NC(=O)c1ccc(O)cc1 | i
CC1CN(c2nc3ccccc3nc2NS(=O)(=O)c2ccc(Cl)cc2)CC(C)O1 (centres undefined) | i
O=C(Cn1cnc2ccccc2c1=O)Nc1nc(-c2ccccc2)cs1 | i
Fc1cccc(C=Nn2c(-c3ccc(Cl)cc3Cl)n[nH]c2=S)c1 | 8.3%
O=C(Cn1c(=O)oc2ccccc21)Nc1ccccc1F | i
COc1ccc(NS(=O)(=O)c2ccc(OCC(=O)Nc3ccc(C)cc3)cc2)cc1 | i
COCCNC(=O)Nc1ccc2nc(-c3cccs3)c(-c3cccs3)nc2c1 | i
Nc1nc(N)nc(-c2ccc(Oc3ccccc3)cc2)n1 | i
Cc1ccc(S(=O)(=O)Nc2cc(Sc3nnnn3-c3ccccc3)c(O)c3ccccc23)cc1 | i
Cn1c(-c2cccc([N+](=O)[O-])c2)n[nH]c1=S | i
COc1c(Cl)cc(CNc2ccc(Br)cc2)cc1Cl | i
CC(NC(=O)C1CC(=O)N(c2ccc(Cl)cc2)C1)c1ccccc1 (centres undefined) | i
C=CCNCCCCOc1cc(C(C)C)ccc1C | i
COC(=O)C1=CN(C2CCCC2)C=C(C(=O)OC)C1c1cccc([N+](=O)[O-])c1 | i
COc1ccc(OC)c(C2CC(c3ccc(OC)c(OC)c3)=NN2S(C)(=O)=O)c1 (centres undefined) | i
COC(=O)c1ccc(C)c(NC(=S)Nc2ccc([N+](=O)[O-])cc2)c1 | i
O=C(c1ccc(F)cc1)N1CCN(C(=O)c2cccc(F)c2)CC1 | i
CCOC(=O)c1sc(NC(=O)COc2ccc(Cl)cc2Cl)cc1C | i
CSc1cccc(NC(=O)C2CCN(S(=O)(=O)c3ccc(C)cc3)CC2)c1 | i
CS(=O)(=O)N(CC(=O)Nc1ccccc1Cl)c1ccccc1F | i
Cc1ccc(Cl)c(OCC(=O)N2CCCC2)c1 | i

In the list so far, 3 have a CF3 group.
structure | Mtb growth
CS(=O)(=O)N(CC(=O)Nc1cc(Cl)ccc1Oc1ccccc1)c1cccc(C(F)(F)F)c1 | 6.4%
Cc1cc(C)nc(NC(=O)Nc2ccccc2C(F)(F)F)c1 | i
CC(C)(O)c1c(C(F)(F)F)nnn1-c1ccccc1 | i

The list is partial, so the mix of outcomes need not match the whole.
